# From PubChem BioAssay
# RECQ1 helicase – qHTS Assay for Inhibitors of RecQ-Like Dna Helicase 1 (RECQ1) | ATP-dependent DNA helicase Q1 (Homo sapiens), P46063 | RECQ1 DNA unwinding, red fluorescence kinetic read | Potency, µM (doses to about 57.3 µM), for inactives: at the top dose activity, negative = inhibition, hits mostly inhibitors | hit rate 0.54% among 240,000 | AID 2549, 2010;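 further: plate controls were vehicle for no effect and no enzyme for full effect; nearly all actives have a fitted effect of over 30% in size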
#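 RECQ1T1 50 nM; forked duplex (20 bp + 30-nt ss tails) 200 nM, ATP 2 mM final; pH 8.0, 2 mM MgCl2, 2.5 ug/ml poly(dI-dC); 15 min compound preincubation; discontinuous kinetic read over 2 h at RT.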
# KDM4E inh – qHTS Assay for Inhibitors of Human Jumonji Domain Containing 2E (JMJD2E). JMJD2E catalytic domain, FDH-coupled NADH fluorescence (FDH is formaldehyde dehydrogenase). Potency, µM (highest dose often 57.1 µM), inactives show top-dose activity change, negative = inhibition, hits mostly inhibitors. hit rate 1.6% among 230,000. AID 2147, 2009; active means well fitted inhibition curve with a large enough effect, not every such curve was filed as active; inconclusive means small, poorly fitted or top-dose-only effect, or another doubt; inactive means no such curve, though single readings can be large or run the other way;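 further: 0% = wells with enzyme and -100% = buffer wells without enzyme; nearly all actives have a fitted effect of over 50% in size; many of its hits are not listed in these tables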
# Target sequence (B2RXH2 1-337 limits assumed): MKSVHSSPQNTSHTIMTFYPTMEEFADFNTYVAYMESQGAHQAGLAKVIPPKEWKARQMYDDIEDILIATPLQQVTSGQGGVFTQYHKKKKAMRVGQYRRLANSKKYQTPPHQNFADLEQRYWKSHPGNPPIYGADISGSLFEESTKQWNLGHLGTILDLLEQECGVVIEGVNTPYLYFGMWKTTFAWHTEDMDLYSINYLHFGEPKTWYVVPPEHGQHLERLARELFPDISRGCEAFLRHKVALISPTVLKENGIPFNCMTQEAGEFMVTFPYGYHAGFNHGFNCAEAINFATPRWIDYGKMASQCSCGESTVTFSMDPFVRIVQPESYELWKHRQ
# TRb-SRC2 inh – qHTS for Inhibitors of the Interaction of Thyroid Hormone Receptor and Steroid Receptor Coregulator 2. TRbeta-SRC2 peptide binding, fluorescence polarization; receptor liganded with 1 µM T3. Potency, µM (titrated, usually from 106 µM), inactives show at the highest dose activity change, negative = inhibition, most hits filed as inhibitors. hit rate 0.065% among 280,000;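 further: plate controls were bound peptide for no effect and peptide without receptor for full effect; nearly all actives have a fitted effect of over 50% in size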
# Target sequence (P10828 whole entry, looked up): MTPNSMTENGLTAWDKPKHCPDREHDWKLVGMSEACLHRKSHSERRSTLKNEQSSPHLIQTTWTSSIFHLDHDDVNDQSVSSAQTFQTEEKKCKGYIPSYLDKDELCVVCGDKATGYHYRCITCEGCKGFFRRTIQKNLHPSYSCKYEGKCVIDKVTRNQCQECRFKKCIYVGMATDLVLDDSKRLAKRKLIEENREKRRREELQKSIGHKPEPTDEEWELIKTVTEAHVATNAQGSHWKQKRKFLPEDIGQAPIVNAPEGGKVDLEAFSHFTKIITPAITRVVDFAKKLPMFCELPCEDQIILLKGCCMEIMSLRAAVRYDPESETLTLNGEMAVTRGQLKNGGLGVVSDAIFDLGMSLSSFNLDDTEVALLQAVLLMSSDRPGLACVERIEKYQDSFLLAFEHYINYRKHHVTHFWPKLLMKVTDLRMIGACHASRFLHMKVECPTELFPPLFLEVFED
#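 Decrease in fluorescence polarization of 20 nM Texas Red SRC2 coactivator peptide flagged inhibition of its binding to 0.6 uM TRb LBD; 1 uM T3 included, incubation 5 hr, ex 555/em 632 nm.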
# Tau fibril FP – qHTS for Inhibitors of Tau Fibril Formation, Fluorescence Polarization. hit rate 0.39% among 280,000. AID 1468, 2008. Potency, µM (top dose mostly 57.7 µM), without a hit: at the top dose activity, negative = inhibition, most hits filed as inhibitors. K18 P301L tau heparin fibrillization, Alexa594 FP, 6 h; further: nearly all actives have a fitted effect of over 55% in size
# Target sequence (P10636 561-689 P618L limits assumed): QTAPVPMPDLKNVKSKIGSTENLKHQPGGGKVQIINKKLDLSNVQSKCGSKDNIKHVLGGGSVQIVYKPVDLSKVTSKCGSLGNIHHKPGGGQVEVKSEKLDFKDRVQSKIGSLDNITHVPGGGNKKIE
#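 Recombinant K18 P301L […], labeled with Alexa 594 at 0.24 uM over 15 uM unlabeled; heparin inducer 20 uM final; 37 C, 6 hr; FP endpoint.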
# TexasRed fluor – Total Fluorescence Counterscreen for Inhibitors of the Interaction of Thyroid Hormone Receptor and Steroid Receptor Coregulator 2; TRb/SRC2 Texas Red total fluorescence interference; Potency, µM (titrated, usually from 106 µM), without a hit: at the highest dose fluorescence change, negative = quenching; hit rate 0.29% among 280,000; active means well fitted curve in either direction with a large enough effect; inconclusive means small, poorly fitted or top-dose-only effect
#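 Flags fluorescent or light-absorbing compounds by total fluorescence, S + 2P, at 555 nm excitation and 632 nm emission. Mixture: 20 nM Texas Red SRC2 peptide, 0.6 uM human TRb LBD, 1 uM T3, 5% DMSO; compound exposure 5 h at ambient temperature.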
# Tau fibril ThT – qHTS for Inhibitors of Tau Fibril Formation, Thioflavin T Binding | recombinant tau K18 P301L (four-repeat tau fragment), heparin-induced fibrillization, ThT fluorescence | AID 1460, 2008 | hit rate 2.1% among 270,000 | Microtubule-associated protein tau (Homo sapiens), P10636 | Potency, µM (highest dose often 57.4 µM), without a hit: at the highest dose activity, negative = inhibition, most hits filed as inhibitors; further: nearly all actives have a fitted effect of over 55% in size
#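 Heparin-induced (20 uM) aggregation of recombinant human K18 P301L tau, 15 uM unlabeled with 0.24 uM labeled, pH 7 acetate buffer, 6 hr at 37 C with compound. Fibrils quantified by 30 uM ThT fluorescence after 1 hr ambient incubation.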
# RGS12 GoLoco inh – qHTS Assay for Inhibitors of RGS12 GoLoco Motif Activity (Red Fluorophore); Guanine nucleotide-binding protein G(i) subunit alpha-1 (Homo sapiens), P63096; Gai1:RGS12 GoLoco peptide FP, rhodamine, 10 min; Potency, µM (highest dose often 61.6 µM), inactives show at the highest dose activity, negative = inhibition, most hits filed as inhibitors; hit rate 0.44% among 230,000; AID 880, 2007; active means well fitted inhibition curve with a large enough effect, not every such curve was filed as active; inactive means no such curve, though single readings can be large or run the other way; further: nearly all actives have a fitted effect of over 30% in size; many of its hits are not listed in these tables
# An asterisk follows results filed as active; i = inactive; u = inconclusive; x = not tested or not shown; & = joins results of further samples; [ ] = another dose, or the depositor's remark. Unless noted, the call rests on the fitted dose curve; in most records, active means well fitted curve in the direction sought with a large enough effect; inconclusive means small, poorly fitted or top-dose-only effect, or another doubt; inactive means no such curve, though single readings can be large; an effect the other way counts as inactive or inconclusive. Unless noted, on the % scale 0 is the no-effect control and ±100 the full control effect; potency means the concentration at half of the fitted maximal effect. Some of the compounds tested; the hit share may differ from the screen's.
compound,RECQ1 helicase,KDM4E inh,TRb-SRC2 inh,Tau fibril FP,TexasRed fluor,Tau fibril ThT,RGS12 GoLoco inh
Cn1cc(SCC(=O)N2CCCc3ccccc32)c2ccccc21,-4%,-1%,7%,-7%,-2%,u,3%
COc1ccc(-c2nc(-c3ccc(NC(=O)c4ccc(Br)o4)cc3)no2)cc1OC,8%,u,0%,-7%,-2%,u,9%
Cn1c(N)c(C(=O)COC(=O)CCc2nc3ccccc3s2)c(=O)n(C)c1=O,-10%,8%,1%,5%,-1%,u,11%
COc1ccc2c(=O)c3c(=O)n(-c4ccccc4)c(-c4ccco4)nc3oc2c1,7%,-3%,-3%,5%,1%,-4%,-11%
c1ccc(-c2ccc(-c3nc(-c4cccnc4)no3)cc2)cc1,-2%,u,-6%,7%,1%,u,-3%
O=C(NC(=S)Nc1nc(-c2ccccc2)cs1)c1ccco1,-8%,7%,0%,10%,-7%,-8%,12%
O=C(Nc1cccc(S(=O)(=O)N2CCOCC2)c1)c1c2c(nc3ccccc13)CCC2,u,-13%,2%,-3%,-20%,-4%,25%
Cc1ccc(S(=O)(=O)N2CCN(C(=O)N3CCOCC3)C2C)cc1 (stereo not given),i,-3%,-11%,-1%,-2%,-3%,-2%
O=C(NCc1ccco1)c1cc2ccccc2c(=O)o1,-10%,2%,-2%,-4%,-4%,-19%,x
O=C(CSc1ncnc2c1oc1ccccc12)N1CCCc2ccccc21,-21%,-6%,-5%,7%,-5%,-7%,9%
COC(=O)c1n[nH]n(-c2cc(Cl)cc(Cl)c2)c1=O,-2%,3%,5%,-4%,-1%,0%,0%
CCOC(=O)c1ccc(-c2ccc(/C=C(\C#N)C(=O)NCC3CCCO3)o2)cc1 (stereo not given),-1%,-8%,-15%,0%,-3%,u,6%
C=CCNC(=O)NC(=O)COC(=O)c1nc2nccc(C)n2n1,i,-11%,-2%,0%,-2%,-7%,4%
Cc1ccc(S(=O)(=O)N(C)CCCC(=O)n2nc(C)cc2C)cc1,-14%,3%,-4%,u,0%,0%,1%
O=C(Nc1nnc(-c2ccccc2Cl)o1)c1cccnc1,-11%,u,3%,6%,-7%,13%,14%

# 11 entries already listed, arranged by number of heavy atoms, descending.
compound,RECQ1 helicase,KDM4E inh,TRb-SRC2 inh,Tau fibril FP,TexasRed fluor,Tau fibril ThT,RGS12 GoLoco inh
O=C(Nc1cccc(S(=O)(=O)N2CCOCC2)c1)c1c2c(nc3ccccc13)CCC2,u,-13%,2%,-3%,-20%,-4%,25%
COc1ccc(-c2nc(-c3ccc(NC(=O)c4ccc(Br)o4)cc3)no2)cc1OC,8%,u,0%,-7%,-2%,u,9%
COc1ccc2c(=O)c3c(=O)n(-c4ccccc4)c(-c4ccco4)nc3oc2c1,7%,-3%,-3%,5%,1%,-4%,-11%
Cn1c(N)c(C(=O)COC(=O)CCc2nc3ccccc3s2)c(=O)n(C)c1=O,-10%,8%,1%,5%,-1%,u,11%
O=C(CSc1ncnc2c1oc1ccccc12)N1CCCc2ccccc21,-21%,-6%,-5%,7%,-5%,-7%,9%
Cn1cc(SCC(=O)N2CCCc3ccccc32)c2ccccc21,-4%,-1%,7%,-7%,-2%,u,3%
c1ccc(-c2ccc(-c3nc(-c4cccnc4)no3)cc2)cc1,-2%,u,-6%,7%,1%,u,-3%
O=C(NC(=S)Nc1nc(-c2ccccc2)cs1)c1ccco1,-8%,7%,0%,10%,-7%,-8%,12%
O=C(Nc1nnc(-c2ccccc2Cl)o1)c1cccnc1,-11%,u,3%,6%,-7%,13%,14%
O=C(NCc1ccco1)c1cc2ccccc2c(=O)o1,-10%,2%,-2%,-4%,-4%,-19%,x
COC(=O)c1n[nH]n(-c2cc(Cl)cc(Cl)c2)c1=O,-2%,3%,5%,-4%,-1%,0%,0%

# Other entries:
compound,RECQ1 helicase,KDM4E inh,TRb-SRC2 inh,Tau fibril FP,TexasRed fluor,Tau fibril ThT,RGS12 GoLoco inh
O=C(c1ccc(=O)[nH]n1)N1CCc2ccccc2C1,14%,2%,2%,3%,-4%,-7%,7%
CCOC(=O)CSc1nc(C)cc(Oc2ccc(=O)n(C)n2)n1,8%,2%,-2%,-11%,-1%,-2%,12%
Cc1nc(SCC(=O)O)c2oc3ccccc3c2n1,i,-7%,-9%,-8%,2%,-8%,2%
CCN1CCN(C(=O)C2c3cc(OC)c(OC)cc3C(=O)N(C)C2c2ccc(SC)cc2)CC1 (stereo not given),-3%,-19%,-7%,2%,-4%,-2%,2%
Clc1cc(Cl)c(Cl)c(Cl)c1Cl,-1%,x,0%[201 µM],x,1%[201 µM],x,-1%
CCOC(=O)c1sc(S(C)(=O)=O)c2c1CC(C)(C)C/C2=N/O,0%,-17%,-9%,-9%,-2%,-15%,-4%
Cc1c(C(=O)O)sc2nc3n(c(=O)c12)CCC3,u,-3%,3%,-2%,-5%,-6%,-7%
Nc1c(-c2ccccc2)c(CN2CCOCC2)nn1-c1ccc(F)cc1,-1%,8%,3%,-2%,-3%,-2%,12%
Cc1cc(C(=O)NNc2cc(Cl)ccc2Cl)no1,8%,-1%,4%,7%,-1%,5%,15%
COc1cc(C)nc(SCC(N)=O)n1,-7%,5%,-17%,5%,1%,5%,-2%
COc1ccc(-c2nc3ccccc3o2)cc1NC(=O)c1ccc(Br)o1,-2%,u,9%,u,-4%,u,80%[activator]
COCCNC(=O)CCSc1nc(-c2ccc(OC)cc2)cc(C(F)(F)F)n1,i,u,-12%&-7%,-9%&-3%,u,-2%&-4%,3%
Cn1c(N)c(C(=O)COC(=O)c2cncc(Br)c2)c(=O)n(C)c1=O,-12%,-18%,-3%,7%,-1%,u,3%
CCCC(C)CO (stereo not given),-2%,x,-1%,x,0%,x,4%
CCN(CC(=O)NCc1cccs1)c1ccc(S(=O)(=O)N2CCN(C)CC2)cn1,20%,-23%,-3%,0%,-4%,-3%,1%

# (more compounds)
compound,RECQ1 helicase,KDM4E inh,TRb-SRC2 inh,Tau fibril FP,TexasRed fluor,Tau fibril ThT,RGS12 GoLoco inh
CC(=O)c1ccc2c(c1)N(CCCN1CCC(CCO)CC1)c1ccccc1S2,i,0%[25.5 µM],3%[53 µM],x,-1%[53 µM],x,6%[21.6 µM]
c1ccc(-c2noc(C3CCCCC3)n2)nc1,-4%,1%,-10%,-2%,-1%,-4%,7%
Cc1ccc(/C=C(\C#N)C(=O)Nc2cccc3ncccc23)o1,-7%,1%,-2%,u,-2%,14µM*,139%[activator]
Cc1cc(C)nc(SCC(=O)OCN2C(=O)c3ccccc3C2=O)n1,-5%,-15%,-4%,-6%,-3%,-17%,-11%
COC(=O)c1ccccc1NC(=O)C1=CC(c2cccs2)=NS(=O)(=O)N1C,x,x,-9%,-11%,-2%,2%,x
Cc1cc(=O)[nH]c(SCC(=O)NCc2ccco2)n1,-11%,-1%,5%,-3%,2%,-10%,3%
O=C(O)c1ccc(CNc2ccccc2C(=O)O)cc1,3%,-3%,0%,2%,0%,-10%,-27%
CC1(C)Cc2c(C#N)c(N3CCN(C(=O)c4ccco4)CC3)nc(-c3ccco3)c2CS1,-1%,-1%,14%,7%,-1%,-1%,55%[activator]
CCCC(=O)NNC(=O)CCC(=O)NCc1ccccc1,1%,6%,-2%,5%,1%,2%,-2%
O=C(/C=C/c1ccccc1Cl)NCCc1ccccc1,-3%,2%,-1%,-11%,0%,-22%,8%
COc1ccc(-c2cc(C(=O)c3c(N)n(C)c(=O)n(C)c3=O)c3ccccc3n2)cc1,1%,u,-3%,-6%,0%,-11%,4%
COc1ccc(NC(=O)/C=C/c2ccco2)cn1,i,-18%,5%,-4%,-1%,u,14%
Cc1cccc(-c2n[nH]c(=S)n2/N=C/c2ccc(C)s2)c1,2%,2%,7%,-2%,1%,-4%,12%
CNCCCC1Sc2ccccc2Oc2ccccc21 (stereo not given),-2%,u,-6%,-5%,-1%,-15%,-10%
COc1cc(C(=O)OCC(=O)c2c(N)n(C)c(=O)n(C)c2=O)ccc1OCCC(C)C,i,-3%,2%,-8%,-1%,1%,-1%

# Continued.
compound,RECQ1 helicase,KDM4E inh,TRb-SRC2 inh,Tau fibril FP,TexasRed fluor,Tau fibril ThT,RGS12 GoLoco inh
Cc1cc(NC(=O)c2cc([N+](=O)[O-])cc([N+](=O)[O-])c2C)no1,i,-1%,0%,-9%,-8%,12%,8%
c1cc(-c2ccncc2)ccn1,0%,1%,1%[201 µM],-3%,-3%[201 µM],u,-20%
O=C(Nc1ccc2c(c1)ncn2-c1ccccc1)c1ccco1,-3%,-3%,-5%,2%,-5%,-15%,0%
CN1CCN(C2=Nc3ccccc3Oc3ccc(Cl)cc32)CC1,-20%,-26%,-8%,9%&1%&-7%&7%,-2%,-14%&-14%&-8%&-13%,-1%
O=C(/C=C/c1ccc(Cl)cc1Cl)NCc1ccco1,-12%,1%,-8%,4%,-2%,-5%,9%
CC(=C\C(=O)O)/C(=C/c1ccccc1)C(=O)O,3%,2%,-18%,2%,-2%,11%,-10%
COC(=O)c1sc(S(=O)(=O)Nc2ccc3cn[nH]c3c2)c(C(=O)OC)c1C,-1%,-6%,6%,-4%,-3%,-23%,-1%
Cc1ccccc1NC(=S)NCc1ccc2c(c1)OCO2,0%,4%,-7%,-7%,-1%,-5%,12%
